Screens deposited in PubChem by several laboratories.
Vif TR-FRET – inhibitors of Vif binding to APOBEC3G peptide, primary screen, biochemical, TR-FRET, GST-Vif 1-94, biotin-A3G peptide, dose response retest (AID 1117319) | 260,000 tested, 0.57% active | TR-FRET GST-Vif / biotin-A3G peptide binding; higher % means a stronger effect; test concentration not given here; strong numbers were not always called active | one-dose inhibition, %; IC50 in µM for titrated hits;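 active = above the screen mean plus three standard deviations and confirmed in dose response; inconclusive = results disagree or hit not tested in dose response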;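 also: Vif residues 1-94 fused to GST binding biotinylated APOBEC3G peptide 110-148; 0% = full assay without inhibitor and 100% = GST in place of GST-Vif; retest series ran down from 100 µM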
AF4-AF9 inh – MLL-AF4/AF9 protein interaction inhibition | inhibition, % at 10 µM | AlphaScreen, biotin-AF4 peptide binding to FLAG-AF9 | 350,000 tested, 0.47% active;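 active = every replicate reaching a set inhibition limit, whatever the replicate mean, cut at about 25% in these data; inconclusive = mean inhibition reaches that limit but some replicates miss it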;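 also: 0% = plate neutral control median and 100% = total signal loss; the record names both 10 and 1 µM as test concentration; the first replicate is given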
Target sequence (P42568 whole entry, looked up): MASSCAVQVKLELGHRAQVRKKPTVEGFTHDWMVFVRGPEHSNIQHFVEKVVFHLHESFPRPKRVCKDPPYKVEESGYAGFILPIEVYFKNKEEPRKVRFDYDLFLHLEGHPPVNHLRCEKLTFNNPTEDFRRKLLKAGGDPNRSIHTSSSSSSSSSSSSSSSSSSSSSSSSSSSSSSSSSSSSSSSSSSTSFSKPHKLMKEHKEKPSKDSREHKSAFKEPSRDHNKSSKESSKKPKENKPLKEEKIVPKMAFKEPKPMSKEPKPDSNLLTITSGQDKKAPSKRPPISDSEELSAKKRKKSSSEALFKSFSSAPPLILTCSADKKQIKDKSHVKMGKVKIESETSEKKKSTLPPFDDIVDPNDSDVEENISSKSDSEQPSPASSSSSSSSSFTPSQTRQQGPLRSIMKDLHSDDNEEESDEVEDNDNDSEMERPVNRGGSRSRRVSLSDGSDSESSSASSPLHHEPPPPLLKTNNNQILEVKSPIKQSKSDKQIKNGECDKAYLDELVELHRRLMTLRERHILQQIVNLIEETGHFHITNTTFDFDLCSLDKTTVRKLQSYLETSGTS
E coli growth – inhibitors of Escherichia coli growth | OD600, 23 h; stronger effect = lower value | OD600 absorbance (concentration not given with the values) | 330,000 tested, 0.21% active | AID 1053175;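 active = OD600 absorbance below the run mean of sample wells minus 3.6 SD, in any replicate, cut at about 0.56 in these data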;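 also: stock transfer was 300 nL into about 60 µL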
ALR H2O2 inh – human ALR oxidase inhibition via reduced H2O2; P55789; AID 485317; 290,000 tested, 3.8% active; purified ALR, DTT oxidation, H2O2 HRP-luminol luminescence; inhibition, % (concentration not given with the values);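 active = mean and each replicate at 75% or more; inconclusive = only one of the two met; inactive = neither met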;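 also: stock transfer was 7.5 nL into about 7.5 µL; 0% = neutral wells and 100% = wells with inactivated enzyme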
HNF4A DNA FP – change in binding of human HNF4 alpha to DNA | P41235 | HNF4a-FITC DNA binding, fluorescence polarization, 1 h | activity change, % at 10 µM | 360,000 tested, 0.3% active; in the data active = activity change above about 30%, passing the limit was not always enough;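 also: controls were the assay level and a saturating level of protein; the project sought stronger binding though the title names inhibitors; some compounds called inactive have numbers as strong as hits; positive values seem to mean higher polarization but the record does not say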
Target sequence (P41235 whole entry, looked up): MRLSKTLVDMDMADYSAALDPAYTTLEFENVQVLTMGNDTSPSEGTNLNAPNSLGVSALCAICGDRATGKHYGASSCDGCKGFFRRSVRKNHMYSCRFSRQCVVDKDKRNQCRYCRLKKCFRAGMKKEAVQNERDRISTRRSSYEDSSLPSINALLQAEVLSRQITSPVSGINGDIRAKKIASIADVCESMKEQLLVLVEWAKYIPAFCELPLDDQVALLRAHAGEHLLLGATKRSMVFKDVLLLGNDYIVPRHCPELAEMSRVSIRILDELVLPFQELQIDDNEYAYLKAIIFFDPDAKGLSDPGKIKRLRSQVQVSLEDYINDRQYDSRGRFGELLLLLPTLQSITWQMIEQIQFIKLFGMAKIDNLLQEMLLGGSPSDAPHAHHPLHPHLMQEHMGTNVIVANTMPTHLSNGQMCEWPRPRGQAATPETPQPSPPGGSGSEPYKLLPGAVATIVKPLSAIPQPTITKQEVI
FGF22 binding – FGF22 (human) thermal shift binding. Q9HCT0. recombinant FGF22 thermal shift, SYPRO orange fluorescence; percent of sucrose octasulfate shift, DMSO zero. calls only at 9.99 µM. 340,000 tested, 1.5% active;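 active = melting point raised past a set limit in the mean and every replicate; inconclusive = no clear call; three in four hits are not shown here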
rRNA inh HTS – inhibitors of bacterial rRNA selective over humanized ribosomes | E. coli WT GFP vs humanized-ribosome RFP mutants, fluorescence, 24 h; stronger effect = lower value; DMSO median 0, no signal -100 | 350,000 tested, 1.6% active | GFP signal change (wild-type ribosome), % (concentration not given with the values);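 active = significant combined selectivity score with lowered wild-type GFP, culture density cut under 30%, mutant RFP and density less affected; inactive = any of these conditions unmet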; also: one replicate is shown; some compounds called inactive have numbers as strong as hits
rRNA inh HTS OD600 – second read-out of rRNA inh HTS, no call of its own (marks repeat the call); OD600 change, %; measured here: OD600 growth;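 optical density of the mix in the first replicate; 0 = DMSO median and -100 = no signal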
rRNA inh HTS RFP – also measured in rRNA inh HTS; calls as there; RFP signal change, %; measured here: RFP humanized mutant strains;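 first replicate; 0 = DMSO median and -100 = no signal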
* hit, by the source's call; i = inactive; ? = inconclusive; · = no result given; & = joins results of further samples. These rows are one share of the data; rates above refer to the full screens.

SMILES	Vif TR-FRET	AF4-AF9 inh	E coli growth	ALR H2O2 inh	HNF4A DNA FP	FGF22 binding	rRNA inh HTS	rRNA inh HTS OD600	rRNA inh HTS RFP
COC(=O)[C@H]1C[C@@]2(O)CN(S(=O)(=O)c3ccc(C)cc3)C[C@@]2(OC(=O)NCC2CCCCC2)C[C@H]1C(=O)OC	-4%	0.6	·	·	0.9	i	-8	-12	-0.2
O=C(Nc1nnc(-c2ccco2)o1)c1ccc(Cl)s1	4%	-3.6	0.56	96*	3.0	i	-55	-72	-18
COc1ccccc1CNS(=O)(=O)c1ccc2c(c1)CC(C)N2C(=O)C1CC1 (configuration not stated)	·	-1.6	0.72	-5	6.0	i	-8	-11	1.6
CCN(CC)C(=O)CSc1nc(-c2ccccc2)cc(=O)[nH]1	-5%	-3.4	0.69	-5	0.9	i	·	·	·
COc1ccccc1/C=C/C=N/n1c(-c2ccc(C)cc2)n[nH]c1=S	7%	-8.8	·	3	0.3	i	-1	-1	4.9
C[C@H]1CN([C@@H](C)CO)C(=O)c2cccc(NC(=O)NC3CCCCC3)c2O[C@H]1CN(C)C	·	-6.5	·	·	·	i	7	4	-1.7
CCOc1ccccc1NC(=O)COC(=O)C1COc2ccccc2O1 (configuration not stated)	2%	-0.7	·	·	16	i	11	15	-2.4
Cc1ccc(CSc2nnc(-c3cccc4ccccc34)o2)cc1	·	-3.5	0.71	-3	-6.7	i	-3	15	-2.4
COc1cccc(-c2ccc3c(c2)[C@H]2[C@H](CCN2S(=O)(=O)c2ccccc2C)[C@H](CO)N3C)c1	·	?	·	·	·	i	-4	9	4.5
Clc1cccc(N2CCN(c3ncnc4nc[nH]c34)CC2)c1	-9%	9.0	0.69	-10	0.8	i	9	10	-5.5
COc1ccc(CCN(C)C2CCCN(S(=O)(=O)C(C)C)C2)cc1OC (configuration not stated)	·	-5.6	0.68	·	1.9	i	10	9	-0.5
O=C(O)c1ccccc1S(=O)CCO (configuration not stated)	-1%	·	0.7	1	-1.9	·	·	·	·
Nc1c(C(=O)Nc2ccc3c(c2)OCCO3)nnn1Cc1ccc(F)cc1	-3%	-0.3	0.72	-18	3.7	i	6	-1	1.2
COc1ccc2occ(NC(C)=O)c2c1	-5%	·	0.71	1	0.3	·	·	·	·
CC(=O)Nc1ccc(S(=O)(=O)N2CCSC2)cc1	0%	-2.4	·	-5	-0.7	i	2	13	-4.4
CCCCC1Cc2[nH][nH]c(=O)c2C(c2ccc(Cl)cc2)O1 (configuration not stated)	·	-1.2	·	·	-3.5	i	5	1	1.2
C[C@@H]1CN([C@H](C)CO)C(=O)Cc2cc(NC(=O)Cc3cn(C)c4ccccc34)ccc2O[C@@H]1CN(C)C	·	2.2	·	·	·	i	5	2	0.2
O=C(O)CCc1ccc(S(=O)(=O)N2CCOCC2)cc1	2%	·	0.68	1	0.1	·	·	·	·
CCCN(CC(=O)Nc1ccccc1C)C(=O)C1CC(=O)N(c2cccc(C)c2C)C1 (configuration not stated)	-1%	3.5	0.68	-6	-1.6	i	8	12	-0.4
O=C(NC1CCCCCC1)c1ccc(CS(=O)Cc2cccc(Cl)c2)o1 (configuration not stated)	7%	0.4	0.7	1	-2.1	i	-11	-10	-5.3
C[C@@H]1CCCCO[C@H](CN(C)C(=O)Cc2ccccc2)[C@@H](C)CN([C@H](C)CO)C(=O)c2cc(NC(=O)Nc3ccc4c(c3)OCO4)ccc2O1	·	1.5	·	·	·	i	2	0	-1.1
O=C(N[C@@H]1CC[C@H](CCNS(=O)(=O)c2cccc(Cl)c2)O[C@@H]1CO)c1ccncc1	·	-3.3	·	·	·	i	-1	-3	-1.6
CC(C)c1cc2cc3ccc(=O)oc3cc2o1	2%	-2.5	0.69	-25	4.0	i	-32	-51	-3.6
COc1ccc(S(=O)(=O)Nc2ccc3c(c2)CC(=O)N([C@@H](C)CO)C[C@H](C)[C@@H](CN(C)S(=O)(=O)c2ccc(OC)cc2)O3)cc1	·	1.8	·	·	·	i	-4	6	-0.2
Cc1noc(C)c1NC(=O)Nc1ccc2c(c1)CC(=O)N([C@H](C)CO)C[C@@H](C)[C@@H](CN(C)C(=O)Nc1ccc(C(F)(F)F)cc1)O2	·	0.2	·	·	·	i	1	3	-1.6
CCOC(=O)[C@H]1[C@H]2COc3ccc(Cl)cc3[C@@H]2N2C(=O)c3ccc(Cl)cc3NC(=O)[C@@]12C	·	5.3	·	·	4.5	i	-7	-10	2.8
CS(=O)(=O)Nc1ccc(C2=NN(C(=O)c3ccco3)C(c3ccccc3)C2)cc1 (configuration not stated)	3%	·	0.68	·	1.8	·	·	·	·
C[C@@H]1CN([C@@H](C)CO)C(=O)Cc2cc(NC(=O)c3ccncc3)ccc2O[C@@H]1CN(C)Cc1ccccc1	·	-7.3	·	·	·	i	0	4	0.5
CCOC(=O)c1c(NC(=O)CSc2nnnn2-c2ccccc2)sc2c1CCC(C)C2 (configuration not stated)	-4%	·	0.81	·	5.4	·	·	·	·
NS(=O)(=O)c1ccc(CNC(=O)NC2(c3ccccc3)CC2)cc1	28%	?	0.73	21	5.3	i	4	6	-1.0
C[C@H](CO)N1C[C@H](C)[C@H](CN(C)Cc2ccc(-c3ccccc3)cc2)OCc2ccccc2-c2ccccc2C1=O	·	0.1	·	·	·	i	-1	0	1.4
Cc1ccc(N(CC(=O)NCc2ccccc2)C(=O)CCC(=O)Nc2nccs2)cc1	-4%	-0.2	0.68	·	-3.5	i	3	14	-0.9
CN(C)C(=O)c1cccc(-c2ccc(C3[C@H]4CNC[C@@H]3N4C(=O)Nc3cccc(Cl)c3)cc2)c1 (some centres not stated)	·	5.0	·	·	·	i	-3&1	1&4	7.0&1.1
CCOC(=O)CCn1c(CC(=O)OCC)nc2ccccc21	-4%	·	0.7	46	-2.2	·	·	·	·
C[C@@H]1CN([C@H](C)CO)C(=O)c2cc(NS(=O)(=O)c3cn(C)cn3)ccc2O[C@H]1CN(C)C(=O)Nc1ccc2c(c1)OCO2	·	-4.0	·	·	·	i	-4	12	-0.1
Cc1cccc(NC(=O)c2cnn3ccccc23)c1C	?	-1.1	0.7	·	1.8	i	16	8	-0.4
Cc1ccccc1-c1ccc2c(c1)O[C@H](CN(C)C(=O)Nc1ccccc1)[C@H](C)CN([C@@H](C)CO)S2(=O)=O	·	0.8	·	·	·	i	-3	-20	-0.2
CCCCNC(=O)C1CC(=O)N(C2CCCC2)C1 (configuration not stated)	7%	·	0.72	-27	-0.1	·	·	·	·
O=C(CCNS(=O)(=O)c1ccc(OC(F)(F)F)cc1)N1CCCC1	2%	0.3	0.65	·	-1.4	·	3	8	-1.5
C=CCNC(=O)c1c(Br)cnn1-c1ccc(C)cc1	·	2.3	0.74	-4	6.1	i	9	16	2.7
CC(C)[C@@H]1COC(c2cccc(C3=N[C@H](C(C)C)CO3)n2)=N1	·	-28	·	2	2.4	i	11	25	14
CCOC(=O)[C@]12CCC=C1N(Cc1ccc3c(c1)OCO3)C(=O)[C@H](CC(=O)NCC13CC4CC(CC(C4)C1)C3)C2	·	0.1	·	·	3.3	i	9	8	3.7
O=C(CN1CCOCC1)N1CCCCN2[C@H](C1)[C@H](c1ccc(C#Cc3ccccc3F)cc1)[C@@H]2CO	·	-3.5	·	·	·	i	8	-8	9.1
O=C(CSc1nc(-c2ccccc2)c(-c2ccccc2)[nH]1)NCC1CCCO1 (configuration not stated)	-6%	-3.1	0.66	·	2.3	i	7	5	1.8
CC1CC(C)CN(S(=O)(=O)c2cccc3nonc23)C1 (configuration not stated)	4%	6.7	0.72	-3	-2.0	i	2	2	-1.7
CNC(=O)NCC12CC3CC(CC(C3)C1)C2	15%	·	0.72	2	-5.0	·	·	·	·
CO[C@H]1CN(C)C(=O)c2ccc(NC(=O)NC(C)C)cc2OC[C@@H](C)N(CC2CC2)C[C@H]1C	·	-7.8	·	·	·	i	1	6	-3.0
COc1cccc(N2CCN(CC(=O)NC(=O)NCc3ccco3)CC2)c1	3%	-1.9	0.68	37	-3.3	i	0	2	-2.3
COCCNC(=O)c1cccc(NS(=O)(=O)c2cccc3cccnc23)c1	-1%	·	0.72	·	0.8	·	·	·	·
CCC(CC)C(=O)NCc1ccccc1Cl	27%	·	0.69	-1	-1.2	·	·	·	·
The results go on.
SMILES	Vif TR-FRET	AF4-AF9 inh	E coli growth	ALR H2O2 inh	HNF4A DNA FP	FGF22 binding	rRNA inh HTS	rRNA inh HTS OD600	rRNA inh HTS RFP
Cn1c(=NC(=O)CS(=O)(=O)c2ccccc2)sc2cc([N+](=O)[O-])ccc21	-6%	-0.5	0.62	-5	-2.6	i	8	1	-1.4
Cn1nc(C(=O)Nc2nc(-c3ccc(F)cc3)cs2)ccc1=O	9%	0.8	0.69	·	-4.1	i	0	6	3.8
Cc1nnc(-c2ccccc2)c(=O)n1/N=C/c1c(O)ccc2ccccc12	?	·	·	-20	19	·	·	·	·
COc1ccc(S(=O)(=O)Nc2ccc3c(c2)C(=O)N([C@@H](C)CO)C[C@@H](C)[C@@H](CN(C)S(C)(=O)=O)OCCCC[C@@H](C)O3)cc1	·	-1.3	·	·	·	i	-6	-6	-1.0
O=C(NCCN1CCN(C(=O)NC2CCCCC2)CC1)NC1CCCCC1	-4%	·	0.73	2	0.8	·	·	·	·
CC1CCCCN1S(=O)(=O)c1ccc(S(=O)(=O)NCCc2ccncc2)cc1 (configuration not stated)	0%	-44	0.69	-3	4.7	i	-12	-10	2.9
C=C(C)C1CC=C(C)/C(=N/NC(=O)COc2ccccc2Cl)C1 (configuration not stated)	-8%	0.8	·	0	0.9	i	·	·	·
O=c1[nH]c2ccccc2n2cnnc12	13%	0.2	·	-17	-3.3	i	17	17	3.6

Of the compounds above, 8 contain an aryl methoxy group.
SMILES	Vif TR-FRET	AF4-AF9 inh	E coli growth	ALR H2O2 inh	HNF4A DNA FP	FGF22 binding	rRNA inh HTS	rRNA inh HTS OD600	rRNA inh HTS RFP
COc1ccccc1CNS(=O)(=O)c1ccc2c(c1)CC(C)N2C(=O)C1CC1 (configuration not stated)	·	-1.6	0.72	-5	6.0	i	-8	-11	1.6
COc1ccccc1/C=C/C=N/n1c(-c2ccc(C)cc2)n[nH]c1=S	7%	-8.8	·	3	0.3	i	-1	-1	4.9
COc1cccc(-c2ccc3c(c2)[C@H]2[C@H](CCN2S(=O)(=O)c2ccccc2C)[C@H](CO)N3C)c1	·	?	·	·	·	i	-4	9	4.5
COc1ccc(CCN(C)C2CCCN(S(=O)(=O)C(C)C)C2)cc1OC (configuration not stated)	·	-5.6	0.68	·	1.9	i	10	9	-0.5
COc1ccc2occ(NC(C)=O)c2c1	-5%	·	0.71	1	0.3	·	·	·	·
COc1ccc(S(=O)(=O)Nc2ccc3c(c2)CC(=O)N([C@@H](C)CO)C[C@H](C)[C@@H](CN(C)S(=O)(=O)c2ccc(OC)cc2)O3)cc1	·	1.8	·	·	·	i	-4	6	-0.2
COc1cccc(N2CCN(CC(=O)NC(=O)NCc3ccco3)CC2)c1	3%	-1.9	0.68	37	-3.3	i	0	2	-2.3
COc1ccc(S(=O)(=O)Nc2ccc3c(c2)C(=O)N([C@@H](C)CO)C[C@@H](C)[C@@H](CN(C)S(C)(=O)=O)OCCCC[C@@H](C)O3)cc1	·	-1.3	·	·	·	i	-6	-6	-1.0
